MgrA DNA FP – S. aureus MgrA activity modulators, primary screen, biochemical, S. aureus Newman, fluorescence polarization. MgrA-DNA binding. inhibition, %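 (about 10 µg/mL by stock and volumes)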. 0.13% of 84,000 active;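 active = above 50% in either of two replicates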;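 note: 0% = protein plus DNA without compound and 100% = DNA alone without protein; higher means less MgrA bound to DNA so lower polarization; one replicate is shown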
Sa helicase inh – inhibitors of S. aureus replicative helicase, primary screen, biochemical, fluorescence unwinding readout. AID 485395, 2010. inhibition, %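 (tested at about 80 µM)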. purified S. aureus helicase, fluorescence unwinding assay; about half of the hits fall short of the stated cut. 0.05% of 120,000 active;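 active = both duplicates at 50% or more, or one of them with a favoured structure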;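 note: 0% = mean of negative control wells and 100% = mean of positive control wells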
Starred values were filed as active, the others as inactive; · = not tested or not shown; & = joins results of further samples.

SMILES | MgrA DNA FP | Sa helicase inh
COC(=O)c1ccc(C2(C#N)C(=O)Nc3ccccc32)cc1 (stereo not drawn) | 0.8 | 9
CCCc1cc(=O)n(CC(=O)NCc2ccccc2Cl)c(-n2nc(C)cc2C)n1 | · | 7
NC(Cc1ccc2nsnc2c1)C(=O)O (stereo not drawn) | -3.9 | 0
CCN(CC)c1ccc(C(=O)N=c2sc3cc(OC)ccc3n2CCOC)cc1 | · | 21
O=C(/C=C/c1ccc2c(c1)OCO2)N1CCN(S(=O)(=O)/C=C/c2ccccc2)CC1 | · | 11
Cc1ccc(/C(C#N)=C2C=C(Cl)/C(=N/O)C=C\2Cl)cc1 | -3.4 | ·
Cc1ccc(S(=O)(=O)N(/C=C2\Sc3ccccc3C2=O)c2ccc([N+](=O)[O-])cc2)cc1 | -1.8 | ·
CCOc1ccc2oc(C(=O)OC3CCCC3=O)c(C)c2c1 (stereo not drawn) | · | -8
O=C1CCCN2N=C(SCc3ccccc3)SC2=N1 | · | -17
Cc1ccc(S(=O)(=O)CCc2nnc(NC(=O)CSc3ccc(Cl)cc3)s2)cc1 | 3.1 | ·
COc1ccccc1-c1nnc(NC(=O)CSCc2ccccc2)s1 | · | -19
Oc1c(CN2CCCCC2)ccc2cccnc12 | · | 7
Cc1cc(N2CCN(S(=O)(=O)c3ccc(F)cc3)CC2)c2ccccc2n1 | -1.8 | ·
Cc1ccc(S(=O)(=O)N2CCC3(CC2)OCCO3)cc1 | 1.0 | 1
Cc1ccc(-n2nc(C)c3c(C)cc(C(=O)O)nc32)cc1C | -3.5 | -3
O=C1CC(c2nc3ccccc3[nH]2)CN1CCc1ccccc1 (stereo not drawn) | 0.2 | 4
COc1ccc(OCC(O)Cn2cnc3ccccc32)cc1 (stereo not drawn) | · | 2
CCOC(=O)c1ccc(Nc2nnc(-c3cc4c(ccc5ccccc54)oc3=O)s2)cc1 | -0.9 | ·
N#CCCN(Cc1cccnc1)C(=O)Nc1ccccc1 | · | -7
CCOC(=O)c1sc(=S)n(Cc2ccco2)c1C | · | 17
Cc1ccc2nc(NC(=O)c3ccc(Cn4cc(Cl)cn4)o3)sc2c1 | · | 3
COc1cc2nc3c4ccccc4n(C(C)C)c3nc2cc1OC | 3.8 | ·
COC(=O)CC1COc2ccccc2N1C(=O)c1ccc(Cl)cc1 (stereo not drawn) | -0.1 | ·
CCOC(=O)Cc1cc(=O)n2[nH]c(-c3ccccc3)cc2n1 | -3.2&1.8 | 6
C=CCNc1nc(Nc2ccc(OC)cc2)nc(OC)n1 | -1.1 | 20
Cc1sc2ncnc(N3CCOCC3)c2c1-c1ccc(F)cc1 | · | -14
CCc1ccc2[nH]c(=O)c(C(c3nnnn3Cc3ccccc3)N(Cc3ccccc3)Cc3ccco3)cc2c1 (stereo not drawn) | 1.9 | 3
CNC(=O)n1nccc1-c1ccc(-c2cccs2)s1 | -0.5 | ·
Cc1cccc(Cn2nnc(C(=O)Nc3ccc(Br)cc3)c2N)c1 | · | -32
Cc1c(C)n(Cc2ccc(Br)cc2)c(=O)n(Cc2ccc(Br)cc2)c1=O | -2.0 | ·
CCn1c(=O)[nH]c(=O)c2cc(C(=O)c3cc(Cl)cc(Cl)c3O)cnc21 | · | 0
Brc1ccc2[nH]cc(C=Nc3ccc4c(c3)OCO4)c2c1 | 0.2 | -28
COc1ccc(C(=O)c2oc3ccccc3c2NC(=O)C(C)(C)C)cc1 | -1.5 | 15
COc1ccc(OCCC(=O)N2CCN(c3ccccc3)CC2)cc1 | 0.2 | 18
N=C1/C(=C2\NC(c3ccc(Br)cc3)=CS2)CC(=O)N1C1CC1 | · | -8
CCCc1cc(SCC(=O)OC)n2c(nc3ccccc32)c1C#N | 2.1 | -4
NC(=O)C1CCN(CC(O)COc2ccccc2F)CC1 (stereo not drawn) | · | -6
Cc1ccc(C)n1CCOC(=O)c1cccc(S(=O)(=O)NCc2ccccc2)c1 | · | 16
O=C(c1cccnc1)N(Cc1ccccc1)C1(C(=O)Nc2ccccc2)CCCCC1 | -0.4 | -16
NS(=O)(=O)c1ccc(NC(=O)CCC(=O)O)cc1 | -0.2 | ·
C[N+]1(CC(O)CN2CCCC2=O)CCCCCC1 (stereo not drawn) | -2.8 | 2
O=C(O)CSCCc1ccncc1 | 0.6 | -12
CCN1CCN(C(=O)c2cc(Nc3ccc(C)c(C)c3)nc3ccccc23)CC1 | · | 7
O=S(=O)(NCC1COc2ccccc2O1)c1ccc2c(c1)CCO2 (stereo not drawn) | · | 0
CC1=NCCN1S(=O)(=O)c1ccc(I)cc1 | · | 18
Cn1c(-c2ccccc2)c(CCO)c2ccccc21 | -0.2 | 11
O=C1CCc2cc(S(=O)(=O)NCC3CCCO3)cc3c2N1CC3 (stereo not drawn) | · | -12
CNC(=O)COc1c(C)cc(SC)cc1C | -6.2 | 1
N#Cc1cccc(C(=O)Nc2ccccc2)c1 | · | 6
CSc1nnc(C2CCCN2CC(=O)Nc2ccc(Oc3ccccc3)cc2)n1C (stereo not drawn) | -1.1 | -5
FC(F)Oc1ccc(N=C=S)cc1 | · | -3
O=C(O)C(C(=O)/C=C/c1ccccc1)=C1SCS1 | · | 37
Cc1cc(C)n(CCc2nc3c4ccccc4n(CC#N)c(=O)n3n2)n1 | · | 4
ClC(Cl)=Cn1nnnc1-c1ccccc1 | 0.5 | 1
COc1ccc(-c2nc(CN(C)Cc3cccs3)cs2)cc1OC | · | 24
S=C(NCc1ccccc1)N1CCn2cccc2C1c1cccnc1 (stereo not drawn) | · | -3
O=C(CN1CCC(O)(c2ccc(F)cc2)CC1)NCc1ccc(F)cc1 | -1.9 | 1
Cc1ccc(NCC(O)CSc2nc3c(cc2C#N)CCCC3)cc1 (stereo not drawn) | 1.6 | 12
COCc1cc(C)nc2sc(C(O)c3ccccc3)c(NC(=O)c3ccco3)c12 (stereo not drawn) | -1.9 | -3
CC(C)C[N+]1(C)Cc2ccccc2C1 | -0.2 | 2
(continued)
SMILES | MgrA DNA FP | Sa helicase inh
CSc1sc(-c2ccnc(SCC(=O)C(C)(C)C)n2)c2c1C(=O)CC(C)(C)C2 | 0.3 | ·
CCCC1(C(=O)OCC)NC(c2ccccc2F)C2C(=O)N(c3ccccc3)C(=O)C21 (stereo not drawn) | -1.7 | 22
O=C(NC(Cc1ccccc1)C(=O)Nc1nnc(-c2ccco2)o1)OCc1ccccc1 (stereo not drawn) | · | -6
O=C(C1CCCN(S(=O)(=O)c2cnc[nH]2)C1)N(CCc1ccccc1)Cc1ccccc1 (stereo not drawn) | · | -4
N#Cc1c(-c2ccco2)cc(-c2ccccc2)[nH]c1=O | 9.7 | ·
CCCn1c(=O)[nH][nH]c1=S | · | 37
O=C(CCc1nnc(SCC(=O)N2CCc3ccccc32)[nH]c1=O)OCC(=O)N1CCc2ccccc21 | · | 2
O=C1C2CC=C(Cl)CC2C(=O)N1CN(Cc1ccco1)CN1C(=O)C2CC=C(Cl)CC2C1=O (stereo not drawn) | -0.2 | ·
COc1cc(NC(=O)NCCSCc2ccco2)cc(OC)c1 | -2.4 | ·
CCN(c1ccccc1)S(=O)(=O)c1ccc(Cl)cc1 | 0.9 | 0
CCOC(=O)C1=C(C)N(c2ccc(F)cc2)C(=O)C1CC(=O)Nc1ccc(F)cc1 (stereo not drawn) | 0.0 | ·
CC1(C)CC(=O)C2=C(C1)NC(Nc1nc3ccccc3o1)=NC21CCCCC1 | 1.8 | 10
CNC(=S)NC1=NCCS1 | · | -9
Cc1c(O)nc(N)[nH]c1=O | · | -26
COc1ccc(-c2cc(C(F)(F)F)nc(SCC(=O)N3CCCCCC3)n2)cc1OC | 1.7 | 3
CC(=O)Nc1ccc(S(=O)(=O)N2CC(=O)NC(=O)C2)cc1 | 2.4 | ·
CC(NC(=O)c1nn(C)c(=O)c2ccccc12)c1ccccc1 (stereo not drawn) | · | -10
Cc1cccc(CC(=O)c2c[nH]c3ccccc23)c1 | -1.1 | ·
CSC1=NCCN1C(=O)c1nn(-c2ccccc2)nc1C | -3.4 | ·
Cc1[nH]c(=O)[nH]c(=O)c1N(C)C | · | -2

Full records as entered above. Order of screens: MgrA DNA FP, Sa helicase inh
`O=C(C1CCCN(S(=O)(=O)c2cnc[nH]2)C1)N(CCc1ccccc1)Cc1ccccc1` (stereo not drawn) reads ·, -4
`Cc1ccc(S(=O)(=O)CCc2nnc(NC(=O)CSc3ccc(Cl)cc3)s2)cc1` reads 3.1, ·
`CC1(C)CC(=O)C2=C(C1)NC(Nc1nc3ccccc3o1)=NC21CCCCC1` reads 1.8, 10
`COc1cc2nc3c4ccccc4n(C(C)C)c3nc2cc1OC` reads 3.8, ·

Additional compounds.
SMILES | MgrA DNA FP | Sa helicase inh
CCN(CC)S(=O)(=O)c1ccc2oc(=S)n(CN(C(C)C)C(C)C)c2c1 | · | 3
Cc1cccn2c(=O)c3cc(C#N)c(=O)n(Cc4ccco4)c3nc12 | · | 3
CCN(CC)S(=O)(=O)c1ccc(N2Cc3ccccc3C2=N)cc1 | · | 5
CCn1nc(C)c(Br)c1C(=O)Oc1ccc(Cl)cc1 | 0.9 | ·
NC(=O)C1CCN(C(=O)CCCc2nnc3n4nc(-c5ccccc5)nc4c4ccccc4n23)CC1 | · | 17
O=C(O)CSc1ncnc2c1oc1ccccc12 | · | -12
O=c1cc(-c2ccccc2)c2ccc(O)c(O)c2o1 | · | 58*
O=C(C1CCN(S(=O)(=O)c2ccccc2)CC1)N1CCc2ccccc21 | -1.5 | 0
CCCN1C/C(=C\c2ccc(N(C)C)cc2)C(=O)/C(=C/c2ccc(N(C)C)cc2)C1 | · | -96
COc1ccc(O)c(C(=O)c2cnn(C(=O)CN3CCCC3=O)c2)c1 | · | 8
COC(=O)c1cccc2c1NC(c1cccnc1)C1CC=CC21 (stereo not drawn) | 6.8 | 13
CCOC(=O)CCc1c(C(=O)OCC)[nH]c2ccccc12 | -0.6 | ·
O=C(Nc1ccccc1)OCCOc1ccccc1 | 1.4 | 15
CC(=O)Nc1ccccc1OC(=O)c1cccc(C)c1 | -0.4 | 7
CCN(Cc1ccccc1)C(=O)Cn1ncc2c3ccccc3n(Cc3c(C)cc(C)cc3C)c2c1=O | -0.2 | 3
CC(C)(C)c1ccc(-c2nc(=O)[nH]n2-c2ccccc2)cc1 | 3.9 | ·
CC1CCN(C(=O)COc2ccc(C(C)C)cc2)CC1 | 0.6 | 7
O=S(=O)(c1ccc(-c2ccon2)s1)N(Cc1ccccn1)Cc1ccccn1 | -0.4 | ·
Cc1cc(C)cc(Nc2cc(C(=O)NC3CCCC3)c3ccccc3n2)c1 | 1.1 | 4
CC(=O)NCCC(=O)Nc1ccc(C(F)(F)F)cc1 | · | -4

Marked active in Sa helicase inh (from the list above):
SMILES | MgrA DNA FP | Sa helicase inh
O=c1cc(-c2ccccc2)c2ccc(O)c(O)c2o1 | · | 58*

Continuation.
SMILES | MgrA DNA FP | Sa helicase inh
Cc1cc2cc(CNC(=O)C(C)Oc3ccccc3)ccc2[nH]1 (stereo not drawn) | · | 10
CN(C(=O)Cn1cc(C#N)c2ccccc21)c1ccccc1 | -2.1 | 6
CC1CCN(S(=O)(=O)c2ccc3c(c2)CCCC(=O)N3)CC1 | · | 12
CCOC(=O)N1CCc2c(sc3nc4n(c(=O)c23)N=C(c2ccc(OC)cc2)CS4)C1 | · | 27
COCc1cc(C)nc2sc(C(=O)N3CCc4ccccc43)c(N)c12 | -2.6 | 3
CCOc1ccc(N2CC(C(=O)NC3CC(C)(C)NC(C)(C)C3)CC2=O)cc1 (stereo not drawn) | 1.8 | 12
O=S(=O)(Nc1ccc2c(c1)OCO2)c1ccccc1C(F)(F)F | · | 2
Cn1nccc1/C=C(/C#N)S(=O)(=O)c1ccccc1 | -1.8 | -7
O=[N+]([O-])c1cc(C(F)(F)F)cc([N+](=O)[O-])c1NCCC1CC1(Cl)Cl (stereo not drawn) | -2.9 | ·
N/C(=N\OC(=O)c1ccccc1)c1ccc2c(c1)CCO2 | · | -25
Cc1cc(C)cc(NS(=O)(=O)c2ccc3c(c2)C(C(C)C)C(=O)N3)c1 (stereo not drawn) | · | 10
O=C(N=Nc1c(O)[nH]c2ccccc12)c1ccc2c(c1)OCO2 | · | 10
CCc1ccc(C(=O)COC(=O)C2CSC3(C)CCC(=O)N23)cc1 (stereo not drawn) | · | -6
CCN1C(=O)/C(=C/c2ccccc2O)SC1=S | · | -22
COCC(O)CNc1ccccc1 (stereo not drawn) | -4.1 | 0
CCOc1ccccc1NC(=O)c1c(Cl)nc2sccn12 | 1.1 | 0
COC(=O)N/N=C1\CCCCc2ccccc21 | · | 8
Cc1ccc(-c2noc(Cn3nc(C(=O)O)c4ccccc4c3=O)n2)cc1 | · | -4
O=C(NCc1nc2ccccc2[nH]1)c1cccs1 | · | -18
O=C(OCc1ccccc1)c1cnc(Cl)c(Cl)c1 | 2.1 | 8

Fetched by structure from above, two records:
SMILES | MgrA DNA FP | Sa helicase inh
Brc1ccc2[nH]cc(C=Nc3ccc4c(c3)OCO4)c2c1 | 0.2 | -28
CC1(C)CC(=O)C2=C(C1)NC(Nc1nc3ccccc3o1)=NC21CCCCC1 | 1.8 | 10

Copied from the list:
`Cc1cc2cc(CNC(=O)C(C)Oc3ccccc3)ccc2[nH]1` (stereo not drawn) – Sa helicase inh: 10
`CCOc1ccc(N2CC(C(=O)NC3CC(C)(C)NC(C)(C)C3)CC2=O)cc1` (stereo not drawn) – MgrA DNA FP: 1.8
`COCC(O)CNc1ccccc1` (stereo not drawn) – Sa helicase inh: 0
`CCOC(=O)N1CCc2c(sc3nc4n(c(=O)c23)N=C(c2ccc(OC)cc2)CS4)C1` – Sa helicase inh: 27

Compound activity (PubChem BioAssay)

These rows are one share of the data (hit frequency here may not be typical).
